Screening data from PubChem BioAssay.
TsaE inh – qHTS Assay for Inhibitors of YjeE; tRNA threonylcarbamoyladenosine biosynthesis protein TsaE (Escherichia coli (strain …; Potency, µM; 0.05% of 71,000 active; purified YjeE, fluorescence polarisation of a bound ADP probe; active = well fitted falling curve; inconclusive = weaker or top-dose-only fall, or a rising curve; inactive = flat or poorly fitted curve;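 further: top concentration of the series not given in the record; excess ADP was the control for the full effect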
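Purified YjeE (10 uM) with BODIPY Texas Red-labeled ADP probe (2 uM); compounds pin-transferred, 15 min at room temperature. Binding inhibition read as decreased fluorescence polarization; ADP titration as control.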
Bst PK mod – Pyruvate Kinase. partly purified Bacillus stearothermophilus pyruvate kinase, luminescence ATP production; ribose 5-phosphate activator present at AC10. AID 361, 2006. 1.2% of 51,000 active. Potency, µM; in the data active means potency below about 11 µM; inconclusive means mostly about 12 µM to 25 µM; inactive means weaker than that;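 the screen sought inhibitors and activators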;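 further: potency means the concentration at half of the fitted maximal effect; scaled between full activation by ribose 5 phosphate and full inhibition by luteolin; about four in five hits inhibit and the cells do not say which; series up to 57 µM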
* = called active by the depositor; i = inactive; ? = inconclusive; . = not tested or not shown.

canonical_smiles,TsaE inh,Bst PK mod
COC(=O)[C@@]1(Cc2ccc(F)cc2)[C@H]2c3cc(C(=O)N(C)C)n(C)c3C[C@H]2CN1C(=O)c1ccccc1,i,.
COc1ccc(-n2nc(C(=O)NCc3ccco3)c3c4ccccc4n(C)c3c2=O)cc1Cl,i,>57
COc1ccc(Oc2nc(Oc3ccc(OC)cc3)nc(Oc3ccc(OC)cc3)n2)cc1,i,.
COc1ccc(OC)c(NC(=O)c2nnn(Cc3ccc(Br)cc3F)c2N)c1,i,.
C/C=C/c1ccc(OCCn2cncn2)c(OC)c1,i,>57
CC(C)[C@@H](C(=O)NCC1CCC(C(=O)O)CC1)n1nnc2ccccc2c1=O (stereo partly drawn),i,>57
CCCCOc1ccccc1NC(=O)CC1SC(=NCC)N(CC)C1=O (stereo not drawn),i,.
O=C(Cn1nnc2c(cnn2-c2ccc(F)cc2)c1=O)OC1CCCCC1,i,>57
CCOC(=O)c1[nH]c2ccccc2c1NC(=O)CN1CCCCC1,i,>57
CCOCCn1c(CN2CCN(c3ccccc3)CC2)nc2c1c(=O)n(C)c(=O)n2C,i,>57
N#CCCC12CCCCC1=Nc1ccccc12 (stereo not drawn),i,>57
CCN(CC)c1nc2ccccc2nc1C(C#N)C(=O)NCCc1ccccc1 (stereo not drawn),i,>57
COc1cccc(NC(=O)Nc2cc(C)ccc2F)c1,i,>57
CC(=O)c1c(C)n(C)c2ccc(OC(=O)c3ccco3)cc12,i,8.4*
O=S(=O)(NCC1CCCO1)c1cccc(C(F)(F)F)c1 (stereo not drawn),i,>57
CN(C)c1ncnc2ccc(-c3cccnc3)cc12,i,.
CCOc1cc(N2CCOCC2)c(OCC)cc1NC(=O)CSc1cccc[n+]1[O-],i,>57
CCn1c(SCC(=O)Nc2nc3ccc(C)cc3s2)nc2c(c1=O)SC(C)C2 (stereo not drawn),i,>57
CCOc1ccc(NC(=O)C(CC)NC(=O)c2ccccc2CO)cc1 (stereo not drawn),i,>57
Cn1ncc(Br)c1C(=O)Nc1ccc(Cl)cn1,i,>57
Cc1cc(C(=O)CSc2nnc(Nc3ccccc3F)s2)c(C)n1CC1CCCO1 (stereo not drawn),i,>57
COC(=O)[C@@H]1C[C@H]1[C@@H](NC(=O)c1cccnc1)c1ccccc1,i,.
Cc1ccc(N2CCN(CCc3nc4cc(NC(=O)c5ccco5)ccc4n3C)CC2)cc1,i,.
O=C(CN1C(=O)CCC1=O)Nc1nc(-c2ccc(Cl)s2)cs1,i,.
CN(Cc1ccco1)c1ncnc2ccc(-c3cccnc3)cc12,i,.
Cc1[nH]c2ccccc2c1C(=O)COC(=O)C1CCC(=O)N1 (stereo not drawn),i,.
Cn1cnnc1Sc1nc2ccccc2nc1NS(=O)(=O)c1ccccc1,i,>57
CCOC(=O)c1ccc(OCC(=O)c2ccc(O)cc2O)cc1,i,>57
O=C(CSc1nnc(-c2ccc(F)cc2)o1)N1CCN(C(=O)c2ccco2)CC1,i,>57
CCP(=O)(c1ccccc1)C(C)(C)O (stereo not drawn),i,.
CSc1nccn1CC(=O)Nc1ccc(F)cc1,i,>57
Cc1csc(SCC(=O)Nc2ccc(Cl)cn2)n1,i,>57
O=C(O)NCC1CCCCC1 (tested in a mixture with another compound),i,.
COc1ccc(OC)c(S(=O)(=O)N2CCC(C(=O)Nc3cccc(C)c3C)CC2)c1,i,>57
CCNC(=O)CC1C(=O)N(c2cccc(OC)c2)C(=O)N1CCOC (stereo not drawn),i,>57
CC(=O)c1ccc2c(c1)N(CCCN1CCC(CCO)CC1)c1ccccc1S2,i,.
COc1ccc(NC(=O)Cn2nnc(-c3ccccc3NC(=O)c3cccs3)n2)cc1,i,>57
CC1(C)OC(=O)C(=CNCC(=O)NCC(=O)O)C(=O)O1,i,>57
CCOc1ccc(S(=O)(=O)N2CCN(c3ccc(C)cc3C)CC2)cc1,i,.
CCCCC(=O)NCCc1cc2c(OC)ccc(OC)c2[nH]c1=O,i,i
CC1SC(c2cccc(Cl)c2)NC1=O (stereo not drawn),i,.
CC(=O)N[C@@H](CC(=O)O)C(=O)O,i,.
Oc1ccccc1C1=Nc2ncnn2C(c2ccc(F)cc2)C1 (stereo not drawn),i,.
Cc1cccc2sc(NC(=O)CCNS(=O)(=O)c3cccc4nonc34)nc12,i,>57
COC(=O)c1ccccc1NC(=O)CN1CCC(n2nnc3cc(C)ccc32)CC1,i,>57
CCc1cccc(NC(=O)CCc2nc(-c3cccs3)no2)c1,i,.
CCOC(=O)N1CCN(C(=O)C2c3cc(OC)c(OC)cc3C(=O)N3CCc4ccccc4C23)CC1 (stereo not drawn),i,>57
Cc1ccc(S(=O)(=O)C(C#N)c2nc3ccccc3nc2N2CC(C)OC(C)C2)cc1C (stereo not drawn),i,>11
COc1cccc(C2CC(c3ccccc3Cl)n3ncnc3N2)c1 (stereo not drawn),i,.
CN1CCN(c2nc3nonc3nc2N2CCN(C)CC2)CC1,i,>57

Reformatted with values under each structure: part of the list above.
Each structure is followed by: TsaE inh | Bst PK mod
Cc1[nH]c2ccccc2c1C(=O)COC(=O)C1CCC(=O)N1 (stereo not drawn)
→ i | .
CCCCC(=O)NCCc1cc2c(OC)ccc(OC)c2[nH]c1=O
→ i | i
CCOC(=O)N1CCN(C(=O)C2c3cc(OC)c(OC)cc3C(=O)N3CCc4ccccc4C23)CC1 (stereo not drawn)
→ i | >57
CCc1cccc(NC(=O)CCc2nc(-c3cccs3)no2)c1
→ i | .
COC(=O)c1ccccc1NC(=O)CN1CCC(n2nnc3cc(C)ccc32)CC1
→ i | >57
Cc1csc(SCC(=O)Nc2ccc(Cl)cn2)n1
→ i | >57

More compounds:
canonical_smiles,TsaE inh,Bst PK mod
c1ccc(-c2noc(C3CCCCC3)n2)nc1,i,.
COc1cc(C2=NOC(C(=O)N3CCN(c4ccc(F)cc4)CC3)C2)cc(OC)c1OC (stereo not drawn),i,>57
COc1ccc(N2CCN(C(=O)c3ccc(-n4nc(C)cc4C)cc3)CC2)cc1,i,>57
COc1cccc(-c2noc(CCC(=O)Nc3cccnc3)n2)c1,i,>57
COc1ccc(OC)c(S(=O)(=O)N2C(C)CCCC2C)c1 (stereo not drawn),i,>57
COc1cc(C)c(Cl)c(C)c1S(=O)(=O)NCc1ccc2c(c1)OCO2,i,?
Cc1cc(C)n(CCOc2ccc(Cl)cc2Cl)n1,i,>57
COc1cccc(-c2nnc(NC(=O)c3ccc(S(=O)(=O)N4CC(C)OC(C)C4)cc3)o2)c1 (stereo not drawn),i,>57
CN(Cc1ccco1)C(=O)C1CCC(=O)N1Cc1ccc(F)cc1 (stereo not drawn),i,>57
Cn1c(=O)c2c(nc(CN3CCN(c4ccccc4)CC3)n2CCc2ccccc2)n(C)c1=O,i,>57
CCOc1cc(C(=O)Nc2cc(C)on2)cc(OCC)c1OCC,i,>57
CCCCSc1nc(C)c(CC(=O)OC)c(=O)[nH]1,i,>57
Cc1ccc2oc(=O)cc(CN3CCC(C)CC3)c2c1,i,>57
O=C(C1CCN(Cc2cc(Cl)ccc2O)CC1)N1CCN(Cc2ccccc2)CC1,i,>57
CC1(C)S[C@@H]2[C@H](NC(=O)Cc3ccccc3)C(=O)N2[C@H]1C(=O)O,i,>26
O=c1cc(-c2ccccc2Cl)c2c([nH]1)CCC2,i,.
CCCCc1oc2ccccc2c1C(=O)c1cc(I)c(OCCN(CC)CC)c(I)c1,i,>26
CCCCNC(=O)C1C2C=CC3(CN(Cc4ccccc4Cl)C(=O)C13)O2 (stereo not drawn),i,>57
CCCn1c(=NC(=O)c2ccco2)c(C(=O)OCC)cc2c(=O)n3ccccc3nc21,i,>57
CCc1cc2c(=O)[nH]cnc2s1,i,>57
CCOC(=O)CN1C(=O)C(=O)c2cccc(C)c21,i,.
COc1ccc([C@@H]2CC(=O)c3c(O)cc(O)cc3O2)cc1O,i,.
Cc1ccc(-c2nnc(SCC(=O)N3CCN(c4ccccc4)CC3)o2)cc1,i,>57
Cc1c(N=Cc2nc3ccccc3n2C)c(=O)n(-c2ccccc2)n1C,i,.
COc1ccc(CNC(=O)C2C3C=CC4(CN(Cc5cccnc5)C(=O)C24)O3)cc1 (stereo not drawn),i,>57
O=C(CC(Nc1ccccc1)C(=O)O)c1ccccc1 (stereo not drawn),i,10*
COc1cccc(C2CC(C(F)(F)F)n3ncc(C(=O)NCC4CCCO4)c3N2)c1 (stereo not drawn),i,>57
Cc1c(N=C2NC(=O)C(CC(=O)Nc3ccc(Cl)cc3)S2)c(=O)n(-c2ccccc2)n1C (stereo not drawn),i,>57
COc1ccccc1-n1c(SCC(=O)N2CCCCC2)nc2cccnc21,i,>57
CC(C)Cc1cc(C(=O)N2CCN(c3ccc(F)cc3)CC2)no1,i,.
CN1CCc2c(sc(NC(=O)c3ccc(S(=O)(=O)N4CCOCC4)cc3)c2C(N)=O)C1,i,.
CCc1cccc(NC(=O)C2CCCC2)c1,i,>57
CCOC(=O)Cn1cnc2c(nnn2-c2ccc(OC)cc2)c1=O,i,>57
O=C(O)CSc1nnc(CNc2ccccc2Cl)n1-c1ccccc1,i,>57
O=C(CN1CCN(Cc2ccc3c(c2)OCO3)CC1)N1CCc2[nH]c3ccc(F)cc3c2C1,i,>57
CCN(CC(=O)Nc1ccccc1OC)C(=O)C1CC2C=CC1C2 (stereo not drawn),i,>57
O=C1OCCC1Sc1nc2ccccc2n1-c1ccccc1 (stereo not drawn),i,>57
Cc1ccc(C2N(c3cccc(Cl)c3)C(=O)C3CCCN32)o1 (stereo not drawn),i,.
Cc1ccc(Nc2nc(N3CCOCC3)nc(N3CCOCC3)n2)cc1,i,.
N=C1[C@@H](O)[C@]2(I)c3ccccc3N3C(=N)[C@H](O)[C@@H]4c5ccccc5N1[C@@H]4[C@@H]32,i,.
CC(C)(C)OC(=O)N1CCCC1C(=O)N1CCc2ccccc21 (stereo not drawn),i,>57
COc1ccc(-c2nn(-c3ccccc3)cc2CO)cc1OC,i,.
Cc1ccc(-c2nn3c(-c4ccco4)nnc3c3ccccc23)cc1S(=O)(=O)N1CCOCC1,i,>57
CCc1ccc(NC(=O)CSc2nnc(-c3cnccn3)n2Cc2ccco2)cc1,i,>57
CN(C)C(=O)NCc1ccc(S(N)(=O)=O)cc1,i,>57
COc1cc(NC(=O)c2cccs2)ccc1NC(=O)c1ccco1,i,>57
COc1ccc(NC(=O)c2cc(-c3ccccc3OC)on2)cc1,i,.
Cn1cnc2c1c(=O)n(Cc1ccc(F)cc1Cl)c(=O)n2C,i,>57
COCCNC(=O)C(C#N)c1nc2ccccc2nc1N1CCCCCC1 (stereo not drawn),i,>57
c1cn(CCCNc2ncnc3nc[nH]c23)cn1,i,.

Single records (already shown).
Profile of `CC(C)Cc1cc(C(=O)N2CCN(c3ccc(F)cc3)CC2)no1` : TsaE inh = i; Bst PK mod = .
Profile of `O=C(O)CSc1nnc(CNc2ccccc2Cl)n1-c1ccccc1` : TsaE inh = i; Bst PK mod = >57

Additional structures.
canonical_smiles,TsaE inh,Bst PK mod
CSc1ccccc1NC(=O)c1ccncc1,i,>57
COC(=O)CC1=C(C(=O)OC)C(c2ccc3c(c2Cl)OCO3)C(C#N)=C(N)O1 (stereo not drawn),.,>26
O=C(c1scc2c1CCCC2)N1CCCCC1,i,>57
COc1cccc(C2C(C(=O)Nc3ccc(C)cc3C)=C(C)Nc3ncnn32)c1OC (stereo not drawn),i,>57
CCOC(=O)c1ccc(NC(=O)CSc2nc3c(c(=O)n2-c2ccccc2OC)SCC3)cc1,i,.
Cn1nnnc1SCC(=O)NC1CCCCC1,i,>57
Cc1ccc(OCc2ccc(C(=O)Nc3nccs3)o2)cc1,i,>57
CC(C)C(OC(=O)c1cccs1)C(=O)NCc1cccs1 (stereo not drawn),i,>57
O=C(c1cccc(F)c1)N1CCC2(CC1)CCN(C(c1ccccc1)c1ccccc1)CC2,i,.
COc1c(O)ccc2c1CN1CCc3cc4c(cc3[C@@H]1C2)OCO4,i,.
CCCN1C(=O)C(NC(=O)c2ccncc2)(C(F)(F)F)C2=C1CC(C)(C)CC2=O (stereo not drawn),i,>57
COc1ccc(-c2ccc(SCC(=O)N3CCOCC3)nn2)cc1,i,i
COc1ccc(C2C(C(=O)N3CCOCC3)CCC(=O)N2c2cc(OC)c(OC)c(OC)c2)cc1 (stereo not drawn),i,>57
CC(C)C(NS(=O)(=O)c1cccs1)C(=O)NCCN1CCN(c2ccccc2)CC1 (stereo not drawn),i,>57
COc1ccc2cc(CN(CCc3ccccc3)Cc3nnnn3Cc3ccco3)c(=O)[nH]c2c1,i,>57
CC1Cc2ccccc2N1C(=O)CSc1nc2ccccc2n1CC(=O)N1CCOCC1 (stereo not drawn),i,>57
O=C1C(Cl)=C(N2CCCCC2)C(=O)N1c1ccccc1,i,.
COc1cccc(-c2nn(C)c3sc(C(=O)NCc4ccccn4)cc23)c1,i,>57
Cc1cc(C)cc(NC(=O)CSc2nnc(Cn3c(=O)sc4ccccc43)n2C)c1,i,.
CCCCCCn1c(SCC(C)C)nc2c1c(=O)[nH]c(=O)n2C,i,>57

Some of the compounds tested; the hit share may differ from the screen's.
